Compound activity deposited in PubChem BioAssay by ICCB-Longwood Screening Facility, Harvard Medical School.
AID504770: growth inhibition of E. coli YBA685, primary screen, V. cholerae RctB inhibitors | z-score (test concentration not listed) | hit rate 0.27% among 130,000 | E. coli YBA685 rctB-dependent plasmid, OD600 growth, 3 h; active compounds read low;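 active = z-score under -2 on both plates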;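 note: wells of about 30 µL received 100 nL stock; score is relative to mean and SD of the test wells; the first replicate is given; strong numbers were not always called active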
CapD inh: Bacillus anthracis CapD inhibitors, primary screen, biochemical, fluorescence intensity; CapD gamma-glutamyltranspeptidase (Bacillus anthracis Ames Ancestor); purified CapD enzyme, fluorescence intensity read-out; active compounds read low; some hits fall short of the stated cut; z-score (test concentration not listed); hit rate 0.23% among 140,000; AID 492967, 2010;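 active = z-score under -4 in either of two replicates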;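 note: stock transfer was 100 nL into about 40 µL; score is relative to mean and spread of the plate; one replicate is shown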
Starred values were filed as active, the others as inactive; & = joins results of further samples.

CCOC(=O)c1c(SC)nc2ccc(Cl)cc2c1N1CCOCC1 was read as AID504770 0.8 and CapD inh -0.02.
Screening COc1cccc(C(=O)Cn2c(=O)n(CCCS(=O)(=O)C3CCCCC3)c(=O)c3ccccc32)c1 returned AID504770 -0.05 and CapD inh -0.58.
Screening O=C(CCc1nc2ccccc2s1)OC1CCCCC1=O (stereo not given) returned AID504770 0.05.
`COC(=O)C(NC(=O)Nc1ccc(C(C)(C)C)cc1)C(C)C` (stereo not given) gave AID504770 2.6 and CapD inh -0.24.
`Cc1nc2ccccc2n1CC(=O)OCc1ccc(Br)cc1` gave AID504770 0 and CapD inh -0.66.
`N#Cc1c(N)sc2c1CCN(c1nc(CN3CCOCC3)nc3scc(-c4cccs4)c13)C2` gave AID504770 0.25.
For Cc1cn(-c2nc(-c3ccccc3)oc2-c2ccccc2)c(=O)[nH]c1=O the results were CapD inh -0.27.
`COc1nc(C)cc(C(F)(F)F)c1C#N` gave AID504770 0.75 and CapD inh 87.
O=C1/C(=C/c2ccccc2F)Cc2ccccc21 was read as AID504770 0.15 and CapD inh -0.36.
`O=c1c2ccccc2n2nncc2n1Cc1ccccc1F` gave AID504770 -0.4 and CapD inh 0.41.
For CC(=O)Oc1ccc2c(c1)NC1(OC(C)=O)C(=O)c3ccccc3C21OC(C)=O (stereo not given) the results were AID504770 0.55 and CapD inh -0.98.
Screening Cc1cc2c(c(=O)o1)C(c1ccccc1OCc1ccccc1Cl)C(C#N)=C(N)O2 (stereo not given) returned CapD inh 0.4.
`COc1cccc(NC(=O)CSc2ncccn2)c1` gave AID504770 0 and CapD inh -0.05.
For O=C(Nc1nc2ccccc2n1CCOc1ccc(Br)cc1)c1cccs1 the results were CapD inh 7.3.
For COC(=O)c1ccc(CNC(=O)C(NC(C)=O)C(C)C)cc1 (stereo not given) the results were AID504770 -0.1.
For O=C(O)CSCC(=O)N1CCn2c3c(c4cc(C5CCCCC5)ccc42)CCCC31 (stereo not given) the results were AID504770 0 and CapD inh 0.26.
COc1ccc(-c2nn(-c3ccccc3)cc2/C=C2\N=C(c3ccccc3)OC2=O)cc1OC was read as CapD inh -0.2.
For O=C(NC(=S)N1OC[C@@H]2COc3ccc4ccccc4c3[C@@H]21)c1ccccc1 the results were CapD inh -0.005.
Screening O=S(=O)(Nc1cccc(F)c1)c1cccc2nsnc12 returned CapD inh 0.08.
COc1ccc(-c2cc(=Nc3ccc(OC)c(OC)c3)c3ccccc3o2)cc1 was read as AID504770 0.1 and CapD inh 5.8.
`CCOc1ccccc1CNC(=O)CCc1cn(CC)c2ccccc12` gave AID504770 -0.35 and CapD inh 0.67.
`CN1CCC(O)(c2ccccc2)C(C(=O)c2ccccc2)C1` (stereo not given) gave AID504770 -1.6 and CapD inh 0.54.
`CC1(C)CC2(CCCCC2)C(=O)O1` gave CapD inh -0.71.
Screening Cc1ccc(C(=O)O/N=C/c2c(-c3ccccc3)nc3ccc(Cl)cn23)cc1 returned CapD inh 0.11.
Cc1cc(C)c2c(n1)sc1c(N3CCN(c4ccccc4)CC3)ncnc12 was read as AID504770 -1.1 and CapD inh -0.26.
`CCn1cc(C(=O)NCCC(C)C)c2cc(OC)c(OC)cc2c1=O` gave CapD inh 0.035.
For COc1ccc(NS(=O)(=O)c2cccc3cccnc23)c(OC)c1 the results were AID504770 -1.1 and CapD inh -0.48.
CCOc1ccc(C(=O)N2C(C)CCCC2C)cc1OCC (stereo not given) was read as AID504770 0.2 and CapD inh 0.21.
Screening CCCCn1c(C(Cc2ccccc2)NC(=O)COC)nc2ccccc21 (stereo not given) returned AID504770 -0.4 and CapD inh 0.17.
Screening O=C(COC(=O)Cc1coc2ccc3ccccc3c12)Nc1nnc(-c2ccccc2)o1 returned AID504770 0.05.
CCOC(=O)C1=C(CSc2nc(C)c(C)c(C)c2C#N)OC(N)=C(C#N)C1c1ccc(OCc2ccccc2)cc1 (stereo not given) was read as CapD inh 4.1.
O=C(OCC(=O)N1CCN(C(=O)c2ccco2)CC1)c1ccccc1 was read as AID504770 0.65.
Screening CCCCN1COc2c(c3c(C(=O)OCC)c(C)oc3c3ccccc23)C1 returned AID504770 -0.65.
Fc1ccc(N=c2scc(-c3ccc(F)cc3)n2CCc2ccccc2)cc1 was read as CapD inh 4.2.
COc1ccc(NC(=O)CSc2nc3ccccc3c(=O)n2CCCC(=O)NCC2CCCO2)c(OC)c1 (stereo not given) was read as CapD inh 0.58.
Screening CCCCn1c(SCC(=O)N(CC)c2cccc(C)c2)nc2ccsc2c1=O returned AID504770 -0.6 and CapD inh -0.31.
Screening N=C(N)SCc1nc(-c2ccc(Cl)cc2)no1 returned AID504770 -1.2 and CapD inh -0.65.
COc1cccc(-c2nc3sc4c(c3c(=O)n2CC(=O)Nc2cccc(C(F)(F)F)c2)CCCC4)c1 was read as CapD inh 53.
For O=C(OCC(=O)N1CCCCC1)c1ccccc1OCCOc1ccccc1 the results were AID504770 2.4.
CC(C)(C)NC(=O)CCCN1C(=O)c2ccccc2C1=O was read as AID504770 -0.3.
CC1=C(c2ccc(C)cc2)S(=O)(=O)NC1=NCc1ccccn1 was read as AID504770 1.4 and CapD inh -0.01.
C=CCn1c(CC(=O)Nc2ccccc2Cl)nnc1SCC(=O)Nc1nccs1 was read as AID504770 0.1 and CapD inh 0.29.
O=C1c2ccc(-c3nc4ccccc4c(=O)o3)cc2C(=O)N1Cc1ccc(Cl)cc1 was read as AID504770 -1.2 and CapD inh 0.25.
`O=C1CC(CSc2nnnn2-c2ccccc2)=NN1c1nc2ccccc2[nH]1` gave AID504770 -0.4 and CapD inh 0.24.
For COc1ccc(C2C(C(=O)Nc3ccc(C)cc3)=C(C)Nc3ncnn32)cc1 (stereo not given) the results were CapD inh -0.48.
`Fc1ccc(Nc2nc(-c3ccncc3)nc3ccccc23)cc1` gave AID504770 1.3 and CapD inh 1.5.
Screening COCc1cc(C)nc2sc(C(=O)N(c3ccccc3)c3ccccc3)c(N)c12 returned CapD inh -0.54.
`COc1ccc2c(c1)Sc1ccccc1N2` gave AID504770 -0.25 and CapD inh -0.68.
For Cc1c(CC(Cl)(Cl)Cl)c2c(n1-c1cc(C(F)(F)F)ccc1Cl)CC(C)(C)CC2=O the results were CapD inh 0.21.
Cn1c(=O)c2ccccc2[s+]1-c1cccc2cccc(C(=O)O)c12 (stereo not given) was read as AID504770 -1.1 and CapD inh -0.18.

Some of these compounds in order of molar mass, lowest first.
`COc1ccc2c(c1)Sc1ccccc1N2` gave AID504770 -0.25 and CapD inh -0.68.
Screening N=C(N)SCc1nc(-c2ccc(Cl)cc2)no1 returned AID504770 -1.2 and CapD inh -0.65.
CC(C)(C)NC(=O)CCCN1C(=O)c2ccccc2C1=O was read as AID504770 -0.3.
CC1=C(c2ccc(C)cc2)S(=O)(=O)NC1=NCc1ccccn1 was read as AID504770 1.4 and CapD inh -0.01.
Cn1c(=O)c2ccccc2[s+]1-c1cccc2cccc(C(=O)O)c12 (stereo not given) was read as AID504770 -1.1 and CapD inh -0.18.
Screening CCCCN1COc2c(c3c(C(=O)OCC)c(C)oc3c3ccccc23)C1 returned AID504770 -0.65.
For COc1ccc(C2C(C(=O)Nc3ccc(C)cc3)=C(C)Nc3ncnn32)cc1 (stereo not given) the results were CapD inh -0.48.
For O=C(OCC(=O)N1CCCCC1)c1ccccc1OCCOc1ccccc1 the results were AID504770 2.4.
`O=C1CC(CSc2nnnn2-c2ccccc2)=NN1c1nc2ccccc2[nH]1` gave AID504770 -0.4 and CapD inh 0.24.
Fc1ccc(N=c2scc(-c3ccc(F)cc3)n2CCc2ccccc2)cc1 was read as CapD inh 4.2.
Screening COCc1cc(C)nc2sc(C(=O)N(c3ccccc3)c3ccccc3)c(N)c12 returned CapD inh -0.54.
Screening CCCCn1c(SCC(=O)N(CC)c2cccc(C)c2)nc2ccsc2c1=O returned AID504770 -0.6 and CapD inh -0.31.
C=CCn1c(CC(=O)Nc2ccccc2Cl)nnc1SCC(=O)Nc1nccs1 was read as AID504770 0.1 and CapD inh 0.29.
For Cc1c(CC(Cl)(Cl)Cl)c2c(n1-c1cc(C(F)(F)F)ccc1Cl)CC(C)(C)CC2=O the results were CapD inh 0.21.
COc1cccc(-c2nc3sc4c(c3c(=O)n2CC(=O)Nc2cccc(C(F)(F)F)c2)CCCC4)c1 was read as CapD inh 53.
COc1ccc(NC(=O)CSc2nc3ccccc3c(=O)n2CCCC(=O)NCC2CCCO2)c(OC)c1 (stereo not given) was read as CapD inh 0.58.
CCOC(=O)C1=C(CSc2nc(C)c(C)c(C)c2C#N)OC(N)=C(C#N)C1c1ccc(OCc2ccccc2)cc1 (stereo not given) was read as CapD inh 4.1.

New compounds follow:
`Cc1cc(Cl)n2ncnc2n1` gave AID504770 0.25.
`O=C(Cn1ncn2c(cc3ccccc32)c1=O)NCc1ccc(Cl)cc1` gave AID504770 -0.15 and CapD inh -0.28.
For O=S(=O)(c1cccc(C(F)(F)F)c1)N1CN2CN(C1)CN(S(=O)(=O)c1cccc(C(F)(F)F)c1)C2 the results were AID504770 0.3 and CapD inh -0.55.
Screening CC1CC(=O)Nc2ccccc2N1C(=O)COC(=O)c1n[nH]c(=O)c2ccccc12 (stereo not given) returned AID504770 -0.55.
`CCCCN=c1sc(C(=O)OC)cc(=O)n1CCCC` gave AID504770 0.05 and CapD inh -0.36.
Oc1ccc(C2C=CCC2)cc1 (stereo not given) was read as AID504770 -0.1 and CapD inh 0.59.
`O=C(COC(=O)c1ccc(N2CCCC2=O)cc1)NCc1ccco1` gave AID504770 1.3.
Screening O=C(CCN=C1NS(=O)(=O)c2ccccc21)N1CCN(c2ccc(C(F)(F)F)cn2)CC1 returned AID504770 -0.25.
Screening CC(C)Sc1nnc(C2CC2)n1-c1ccccc1 returned AID504770 -0.6.
Screening CCOC(=O)C1=C(C(=O)OCC)SC(=C2C(=S)C(C)(C)N(C(=O)C(C)C)c3c(C)cccc32)S1 returned CapD inh -0.015.
Screening Cc1ccc2ccc(C(Nc3ccccn3)c3ccc4c(c3)OCO4)c(O)c2n1 (stereo not given) returned AID504770 -0.15 and CapD inh 0.26.
`CC1(C)CC(=O)C2C(=Nc3ccccc3N=C2c2ccccc2)C1` (stereo not given) gave AID504770 -0.65 and CapD inh -2.9.
`COc1ccc(-c2cc3c(=O)n(CC(=O)NCc4cccc(Br)c4)ncn3n2)cc1` gave AID504770 0.1 and CapD inh 0.72.
C1=CN(c2ccccc2)C(C=NCc2ccccc2)=CS1 was read as AID504770 1.1 and CapD inh -1.7.
For O=c1cc(-c2ccc3c(c2)OCO3)oc2ccccc12 the results were AID504770 -0.75&0.4 and CapD inh 10&10.
CC1=C(C(=O)OCCOc2ccccc2)C(c2ccccc2[N+](=O)[O-])NC(=O)N1C (stereo not given) was read as CapD inh 0.015.
`Cc1cc(C(F)(F)F)c2c(n1)sc1c(O)cc(=O)[nH]c12` gave CapD inh 5.8.
Screening CCOc1cc(C2N3CCc4ccccc4C3CN2S(=O)(=O)c2ccc(OC)c3ncccc23)ccc1OC (stereo not given) returned CapD inh 9.2.
O=C(CC1Nc2ccccc2NC1=O)Nc1ccc(F)cc1 (stereo not given) was read as AID504770 -0.35 and CapD inh 5.4.
Screening CCCn1c(N)c(C(=O)COC(=O)Cn2cc(C(F)(F)F)ccc2=O)c(=O)[nH]c1=O returned AID504770 -0.9.
Screening O=C(NC(=O)N1CCSC1)c1c(F)cccc1Cl returned AID504770 1.4 and CapD inh -0.84.
Screening N#Cc1nc(COc2ccccc2)oc1NCc1cccnc1 returned AID504770 -0.4 and CapD inh -0.44.
`CCOC(=O)c1cnn(-c2ccc(Cl)c(Cl)c2)c1C` gave CapD inh -0.21.
`COc1ccccc1N1C(=S)SC2CS(=O)(=O)CC21` (stereo not given) gave AID504770 -0.25.
Screening O=C(c1conc1-c1c(Cl)cccc1Cl)c1sccc1Cl returned CapD inh 28.
`CN1CCc2c(-c3cccs3)nc(OCc3ccccc3Br)c(C#N)c2C1` gave AID504770 0.05 and CapD inh -0.69.
For COc1ccc(CCNC(=O)CSc2nc(O)cc(=O)[nH]2)cc1OC the results were AID504770 1.8 and CapD inh 0.13.
Cc1nn(CCCC(=O)NC2CCCC2)c(=O)c2nccn12 was read as AID504770 -0.25 and CapD inh 0.24.
For CCOc1ccccc1N(C)S(=O)(=O)c1ccc2c(c1)SC(C)C(=O)N2 (stereo not given) the results were AID504770 0.4 and CapD inh 0.14.
`C[C@H]1C[C@H]2[C@@H]3CCC4=CC(=O)C=C[C@]4(C)[C@@]3(F)[C@@H](O)C[C@]2(C)[C@@]1(O)C(=O)CO` gave CapD inh -0.35.

In the list so far, these have a COOH group.
For O=C(O)CSCC(=O)N1CCn2c3c(c4cc(C5CCCCC5)ccc42)CCCC31 (stereo not given) the results were AID504770 0 and CapD inh 0.26.
Cn1c(=O)c2ccccc2[s+]1-c1cccc2cccc(C(=O)O)c12 (stereo not given) was read as AID504770 -1.1 and CapD inh -0.18.

Going on with the list.
`O=C(Cc1cn2ccsc2n1)N/N=C1\CCc2ccccc21` gave AID504770 0.
O=C(O)c1ccccc1C(=O)Nc1ccc(OC(F)(F)F)cc1 was read as CapD inh 0.51.
Screening O=C(Nc1nnc(N2CCCCCC2)s1)c1cc(-c2ccc(Br)cc2)on1 returned AID504770 -0.1 and CapD inh -0.06.
Cc1ccc(CNC(=O)c2sc3ccc(S(=O)(=O)N4CCCCC4)cc3c2N)cc1 was read as AID504770 -0.45 and CapD inh 0.69.
`N#Cc1ccc(C=Nc2ccc(I)cc2)cc1` gave AID504770 -0.6 and CapD inh -0.23.
CCCOC1=NOC2C3CCC(C3)C12 (stereo not given) was read as AID504770 -0.5.
For O=C(NC1=NCCS1)C(c1ccccc1)c1ccccc1 the results were AID504770 -1.3 and CapD inh -0.28.
CN1CC=C(c2noc(CCC(=O)Nc3ccc(F)cc3F)n2)CC1 was read as AID504770 1.4 and CapD inh -0.69.
Screening COC(=O)c1cccc(CSC(=S)N2CCCC2)c1 returned AID504770 -0.3 and CapD inh 0.61.
Cc1ccc(SCC(=O)N/N=C/c2ccco2)cc1 was read as AID504770 -1.1 and CapD inh -0.55.
For CN(Cc1ccccc1)C(=O)C1CCN(S(C)(=O)=O)CC1 the results were AID504770 -0.85.
